Bioassay records from PubChem.
Vaccinia mCherry – vaccinia inhibition (mCherry reporter). Vaccinia virus mCherry reporter infection, fluorescence; about a quarter of the inactives have no number. Potency, µM (doses to about 36.5 µM), for inactives: top-dose activity change, negative = inhibition, usual class: inhibitors. 310,000 compounds, 0.63% hits. AID 720579; active = well fitted inhibition curve with a large enough effect; inconclusive = small, poorly fitted or top-dose-only effect; inactive = no such curve, though single readings can be large or run the other way; tested in A549 cells; further: nearly all actives have a fitted effect of over 35% in size; inactives centre near -10
VACV Venus inh – inhibitors of vaccinia virus (Venus reporter); Vaccinia virus Venus reporter expression, fluorescence; Potency, µM (doses to about 36.5 µM), without a hit: top-dose activity change, negative = inhibition, usual class: inhibitors; 330,000 compounds, 0.46% hits; AID 720580; active means well fitted inhibition curve with a large enough effect; inconclusive means small, poorly fitted or top-dose-only effect; inactive means no such curve, though single readings can be large or run the other way; tested in A549 cells; further: nearly all actives have a fitted effect of over 30% in size; inactives centre near -10
* = called active by the depositor; i = inactive; ? = inconclusive; . = not tested or not shown; & = joins results of further samples; [ ] = dose if it differs, or a comment. On the % scale 0 is the no-effect control and ±100 the full control effect; potency means the concentration at half of the fitted maximal effect.

SMILES	Vaccinia mCherry	VACV Venus inh
O=C1CC(c2ccccc2)CCc2sccc2N1 (centres undefined)	-9%	-4%
NP(=O)(OCCCCc1ccccc1)Oc1ccccc1Cl (centres undefined)	i	-9%
COCC(C)NCc1cccc([N+](=O)[O-])c1 (centres undefined)	-11%	-9%
O=C(Nc1nnc(C2=COCCO2)o1)c1ccc(S(=O)(=O)N2CCCC2)cc1	-3%	-6%
O=c1c(Br)ccc(Br)cc1Br	?	?
O=C(CN1C(=O)NC2(CCc3ccccc32)C1=O)Nc1cccc(F)c1 (centres undefined)	-9%	-19%
O=C(OCc1ccc2c(c1)OCO2)c1ccc(S(=O)(=O)N2CCCC2)cc1	.	-13%
COc1ccc2oc(=O)c(/C(C)=N/NC(=O)c3ccncc3)cc2c1	-10%	-26%
O=C(CCCN1C(=O)/C(=C/c2ccccc2)SC1=S)Nc1ccccc1O	?	?
Cn1ncc(Cl)c(Oc2ccc(C(C)(C)C)cc2)c1=O	-11%	-18%
C/C(Cc1ccccc1)=N\NC(=O)C1CCCCC1	-9%	-6%
Cc1nc2cc(C(=O)N3CCC4(CC3)OCCO4)ccc2n1-c1cccc(F)c1	.	-18%
CCCc1nc(N2CCN(S(=O)(=O)c3ccc(Cl)cc3)CC2)c2c(C)c(C)sc2n1	-6%	-7%
O=S(=O)(Nc1ccc(N2CCOCC2)nn1)c1ccccc1	.	-18%
CCOC(=O)C1=CCN(S(=O)(=O)c2ccc(Br)cc2)C1c1cccc(C)c1 (centres undefined)	10%	-13%
CCC(C)NC(=O)CSc1n[nH]c(=O)n1CCc1ccccc1 (centres undefined)	23%	4%
COc1ccc(Cl)cc1CSc1ncn[nH]1	i	-9%
O=C(Nc1ccc(COc2ccccc2)cc1)c1cccc([N+](=O)[O-])c1	-9%	2%
CC(C)c1nc(SCC(=O)N2c3ccccc3CC2C)c2ccccc2n1 (centres undefined)	i	-15%
O=C(NCc1ccccc1)c1cc(C2CCCN(S(=O)(=O)c3cccs3)C2)on1 (centres undefined)	?	-6%

13 structures already listed, arranged by count of non-hydrogen atoms, smallest number first:
SMILES	Vaccinia mCherry	VACV Venus inh
O=c1c(Br)ccc(Br)cc1Br	?	?
COc1ccc(Cl)cc1CSc1ncn[nH]1	i	-9%
O=C1CC(c2ccccc2)CCc2sccc2N1 (centres undefined)	-9%	-4%
C/C(Cc1ccccc1)=N\NC(=O)C1CCCCC1	-9%	-6%
Cn1ncc(Cl)c(Oc2ccc(C(C)(C)C)cc2)c1=O	-11%	-18%
NP(=O)(OCCCCc1ccccc1)Oc1ccccc1Cl (centres undefined)	i	-9%
CCC(C)NC(=O)CSc1n[nH]c(=O)n1CCc1ccccc1 (centres undefined)	23%	4%
COc1ccc2oc(=O)c(/C(C)=N/NC(=O)c3ccncc3)cc2c1	-10%	-26%
O=C(Nc1ccc(COc2ccccc2)cc1)c1cccc([N+](=O)[O-])c1	-9%	2%
CCOC(=O)C1=CCN(S(=O)(=O)c2ccc(Br)cc2)C1c1cccc(C)c1 (centres undefined)	10%	-13%
O=C(Nc1nnc(C2=COCCO2)o1)c1ccc(S(=O)(=O)N2CCCC2)cc1	-3%	-6%
Cc1nc2cc(C(=O)N3CCC4(CC3)OCCO4)ccc2n1-c1cccc(F)c1	.	-18%
CCCc1nc(N2CCN(S(=O)(=O)c3ccc(Cl)cc3)CC2)c2c(C)c(C)sc2n1	-6%	-7%

(listing goes on)
SMILES	Vaccinia mCherry	VACV Venus inh
CN1C(=O)NC(c2ccc(O)cc2)C2=C1CN(c1cccc3ccccc13)C2=O (centres undefined)	-16%	-3%
N#Cc1ccccc1OCC(=O)NC(N)=O	-13%	-1%
COc1ccc(N2CCN(S(=O)(=O)c3c(C)[nH]c(=O)[nH]c3=O)CC2)cc1	-3%	-6%
CCC1CCCCN1C(=O)c1ccc(OC2CCN(C(=O)C3CC3)CC2)cc1 (centres undefined)	i	-13%
COc1ccccc1N1CCN(c2nc(CNC(=O)c3sc(C)nc3C)nc3ccccc23)CC1	-17%	-13%
Cc1cc(C(=O)NCC2CCCCC2)ccc1[N+](=O)[O-]	i	-12%
O=C(CN(C(=O)CNC(=O)c1cccs1)c1cccc(F)c1)NC1CCCC1	12%	-2%
CC(C)(C)OC(=O)NCCCCCNC(=O)c1nc[nH]c1C(=O)NCCCCCNC(=O)OC(C)(C)C	?	?
Cc1cccc(COC(=O)C(Cc2ccccc2)NC(N)=O)c1 (centres undefined)	-12%	1%
Cc1ccn2c(=O)c(NC(=O)c3cccc([N+](=O)[O-])c3C)c(C)nc2c1	-26%	-13%
COc1ccc(Cl)cc1NC(=O)CSc1nc(N2CCCCC2)nc(N2CCCCC2)n1	.	-4%
CC(=O)N1c2ccc(S(=O)(=O)N3CCC(C(=O)NC4CCCC(C)C4C)CC3)cc2CC1C (centres undefined)	-15%	-6%
Clc1ccc(-c2csc(N/N=C\c3cccnc3)n2)cc1	-32%	-17%
Cc1cc(C)nc(NS(=O)(=O)c2ccc(NC(=O)COc3ccc(Cl)cc3C)cc2)n1	0%	3%
CCCCCn1c(NCc2ccco2)nc2ccccc21	-12%	-22%
C/C(=N/NS(=O)(=O)c1ccccc1)c1ccc(Cl)cc1	9%	5%
CCN1C(=O)[C@H]2[C@@H](c3ccccc3)N[C@]3(CCCN(Cc4ccccc4)C3=O)[C@H]2C1=O	i	-9%
CCOC(=O)c1ccc(NC(=O)c2ccc(-c3cccc(Cl)c3C)o2)cc1	-3%	-2%
CCN(CC)C(=O)CSc1nc2ccccc2c(=O)[nH]1	.	-14%
COc1ccccc1-c1ccc(SCc2ccc([N+](=O)[O-])cc2)nn1	-27%	-14%
COc1ccc2nc(CC(C)(C)CC(=O)O)c[n+]([O-])c2c1	.	-1%
CCCCn1c(N)c(N(CCOC)C(=O)Cn2c(=O)oc3ccccc32)c(=O)[nH]c1=O	-23%	-5%
CN(C)C(=O)c1cccc(-c2cnc3c(NC=O)cc(-c4cccc(F)c4)cn23)c1	?	-18%
Cc1cc(=O)[nH]c(SCC2(O)C3CC4CC(C3)CC2C4)n1 (centres undefined)	-6%	2%
CC(C)=CC(=O)OCC(=O)NC1CCCc2ccccc21 (centres undefined)	i	-11%
CCC(C)NC(=O)c1cn(CC)c2ccc(S(=O)(=O)N(C)C)cc2c1=O (centres undefined)	-17%	-6%
S=C1N(c2ccccc2)C(c2ccc(Cl)cc2)N2CCCN12 (centres undefined)	-4%	-2%
O=C(CS(=O)(=O)c1ccc(Cl)cc1)NCCS(=O)(=O)c1ccc(Cl)cc1	-16%	-14%
O=C(Nc1cccc([N+](=O)[O-])c1)c1ccc2c(c1)OCO2	-1%	-17%
CC(NC(=O)[C@H](Cc1c[nH]c2ccccc12)NC(=O)[C@@H]1Cc2ccccc2CN1)c1ccccc1 (some centres undefined)	3%	8%
CCCCC12CN3CC(C)(CN(C1)C3c1c(C)[nH]c(=O)[nH]c1=O)C2=O (centres undefined)	6%	1%
O=C(Nc1nc2ccc(F)cc2s1)C1=COCCO1	-6%	-18%
CN(Cc1ccccc1)S(=O)(=O)c1ccc(OCC(=O)N2CCOCC2)cc1	-2%	-16%
Cc1cc(S(=O)(=O)NC2CCCCC2)ccc1OCC(=O)N1CCOCC1	-18%	-14%
N#Cc1cc2c(nc1Cl)CCCC2	-8%	0%
CN1CCN(C(=O)c2c(NC(=O)c3ccco3)sc3c2CCC(C(C)(C)C)C3)CC1 (centres undefined)	-19%	-10%
COC(=O)C1=C(C)NC(=O)CC1c1cccc(Cl)c1Cl (centres undefined)	-20%	-5%
COc1cccc(CN2CCN(CCCc3ccccc3)C(CCO)C2)c1OC (centres undefined)	-16%	7%
CCc1sc(C(=O)Nc2nc(-c3ccccn3)cs2)cc1C	?	-19%
CCC(=O)c1cn(CC(=O)Nc2ccccc2F)c2ccccc12	-4%	-21%

Taken from above:
COC(=O)C1=C(C)NC(=O)CC1c1cccc(Cl)c1Cl (centres undefined) – VACV Venus inh: -5%
O=C(Nc1cccc([N+](=O)[O-])c1)c1ccc2c(c1)OCO2 – VACV Venus inh: -17%
O=C(Nc1nc2ccc(F)cc2s1)C1=COCCO1 – VACV Venus inh: -18%

Carrying on.
SMILES	Vaccinia mCherry	VACV Venus inh
Cc1ccc(Cl)cc1NC(=O)NCc1cccn1Cc1ccc(F)cc1	?	?
CC(C)(C)c1ccc(C(=O)N(Cc2ccc(F)cc2)Cc2ccco2)cc1	-2%	-7%
COc1ccc(C2=NN(C(=O)CSc3nc(=O)n4cc(C)ccc4n3)C(c3ccc(C)cc3)C2)cc1 (centres undefined)	i	-27%
COc1ccccc1CNC(=O)c1ccc(Cl)c(NC2=NC3CS(=O)(=O)CC3S2)c1 (centres undefined)	i	-11%
Clc1ccc2oc(-c3ccccc3)cc(=NCCCN3CCOCC3)c2c1	-16%	-18%
CCOC(=O)c1ccc(N2C(=O)c3n[nH]c(C)c3C2c2ccc(C(C)(C)C)cc2)cc1 (centres undefined)	-2%	-7%
O=C(N/N=C/c1cc2c(cc1Br)OCO2)c1ccccn1	-6%	5%
COc1ccc(N2CC3=C(C2=O)C(c2ccc(Br)cc2)NC(=O)N3C)cc1 (centres undefined)	-10%	-11%
Cc1ccc(Cl)cc1NC(=O)c1cc(NC(=O)C2CCCCC2C(=O)O)ccc1N1CCOCC1 (centres undefined)	-4%	-17%
COCCNC(=S)N/N=C(\C)c1ccc(C)c([N+](=O)[O-])c1	-1%	-19%
O=C(/C=C/c1ccc(S(=O)(=O)N2CCOCC2)cc1)NC(CO)C(O)c1ccc([N+](=O)[O-])cc1 (centres undefined)	-12%	-8%
CS(=O)(=O)N(CC(=O)N1CCN(c2ccccc2F)CC1)c1cc(C(F)(F)F)ccc1Cl	-5%	-16%
Cc1cc(C)cc(Oc2coc3cc(OC(=O)c4cccnc4)ccc3c2=O)c1	-16%	-15%
COc1ccc(-c2ocnc2C(=O)Nc2ccc(N3CCOCC3)cc2N2CCOCC2)cc1OC	?	-15%
Cc1ccc2c(c1)[C@H]1[C@H](CO2)[C@H](c2ccccc2)[C@]2(C)C(=O)Nc3ccc(Br)cc3C(=O)N12	?	?
C/C(Cn1nnc2ccccc21)=N\OC(=O)c1ccccc1C	-4%	7%
O=C(NC(=S)Nc1ccc(S(=O)(=O)NC2CCCCC2)cc1)c1cccs1	?	-25%
COc1ccc(CN(CCC(c2ccc3c(c2)OCO3)c2ccccc2OC)C(C)=O)cc1 (centres undefined)	-21%	-21%
COc1ccc(-n2c(SCC(=O)c3ccccc3)nc3c([nH]c4ccccc43)c2=O)cc1	0%	-2%
COc1ccc(OC)c(Nc2nc3ccccc3n3c(C)nnc23)c1	-8%	-5%
N#C/C(=N\O)c1nc2ccccc2[nH]1	-5%	-2%
CCc1c(C)c(C#N)c2nc3ccccc3n2c1NCc1ccccn1	-14%	?
N/C(=C\C(=O)c1cc(Cl)ccc1O)C(Cl)(Cl)Cl	-29%	?
CCN(CCCCN1C(=O)c2ccccc2C1=O)c1ccc2c(c1)C(=O)N(C)C2=O	-14%	-7%
COc1ccc(N(C(=O)COc2ccccc2OC)S(=O)(=O)c2ccc(Cl)cc2)cc1	-16%	-15%
Cc1ccc(-n2c(SCC(=O)NCc3ccco3)nc3sc(C)c(C)c3c2=O)cc1	-18%	-14%
CC(Sc1nc2ncc(Cl)cc2[nH]1)C(=O)Nc1ccc(C(N)=O)cc1 (centres undefined)	i	-12%
NC(=O)c1ccccc1NC(=O)c1ccoc1	i	-7%
O=C(O)c1ccc(N=NN2CCOCC2)cc1	-12%	-2%
S=c1[nH]nc(-c2cc3ccccc3o2)n1Cc1ccccc1	-16%	1%
CC1CN(CCCCOc2ccc3ccccc3c2)CC(C)O1 (centres undefined)	-29%	-10%
O=C(c1ccc(CSc2ccccc2)cc1)N1CCCCCC1	-10%	-4%
Cc1ccc(Cn2cc(CCC(=O)NC3CCCCC3)c3ccccc32)cc1	-14%	-18%
CC[C@@]1(C(=O)OC)N[C@H](CN(C)C(=O)c2ccccc2)[C@@H]2C(=O)N(Cc3ccccc3)C(=O)[C@@H]21	-20%	-2%
O=C(O)C1CCCN(CCC=C(c2ccccc2)c2ccccc2)C1 (centres undefined)	-15%&-7%	-14%&-4%
COc1cccc(CNC(=O)[C@@H]2CCCN2C(=O)[C@H]2CCCCN2C(=O)c2cccc(Cl)c2)c1	41%[activator]	2%
COc1ccc(Cl)cc1NC(=O)CCN1C(=O)NC(C)(C)C1=O	-4%	1%
CCSc1nnc(NC(=O)[C@@H](NC(=O)c2cccc(C)c2)C(C)C)s1	i	-15%
O=c1cc(-c2ccc(C(F)(F)F)cc2)oc2ccccc12	i	-16%
CC1CCc2c(sc3ncnc(SC(C)C(=O)NCC4CCCO4)c23)C1 (centres undefined)	-5%	-7%
CCN(Cc1ccccc1)C(=O)CCCOc1ccccc1	-14%	-8%
Cc1ccc(C2(c3noc(CN4C[C@@H](C)O[C@@H](C)C4)n3)CCCC2)cc1	i	-21%
CC(=O)C1=C(C)NC2=C(C(=O)c3ccccc32)C1c1ccccc1 (centres undefined)	-20%	-18%
CN(C)c1ccc(C(=S)N2CCCCC2)cc1	-8%	-4%
CCCCCSc1nnc2c(n1)OC(c1cccn1C)N(C(C)=O)c1ccccc1-2 (centres undefined)	-14%	-9%
O=c1[nH]c2cc([N+](=O)[O-])ccc2c2cc(Br)ccc12	0%	1%
O=C(Nc1cccc(Cl)c1Cl)c1cc(S(=O)(=O)NCc2ccc3c(c2)OCO3)ccc1F	-17%	-21%
O=C(NCc1ccco1)c1cnccn1	-13%	-2%
Cc1ccc(-c2n[nH]c(=S)n2/N=C/c2ccc(C)s2)cc1	.	-13%

Two of the compounds above, as a markdown table:
| Molecule | Vaccinia mCherry | VACV Venus inh |
| --- | --- | --- |
| CN(C)c1ccc(C(=S)N2CCCCC2)cc1 | -8% | -4% |
| CCCCCSc1nnc2c(n1)OC(c1cccn1C)N(C(C)=O)c1ccccc1-2 (centres undefined) | -14% | -9% |
